From PubChem
Vaccinia Venus: inhibitors of vaccinia virus (Venus reporter); Potency, µM (top dose mostly 36.5 µM), for the others: at the highest dose activity change, negative = inhibition, usual class: inhibitors; 0.46% of 330,000 active; Vaccinia virus Venus reporter expression, fluorescence; active means well fitted inhibition curve with a large enough effect; inconclusive means small, poorly fitted or top-dose-only effect; inactive means no such curve, though single readings can be large or run the other way; tested in A549 cells; further: nearly all actives have a fitted effect of over 30% in size; inactives centre near -10
VACV mCherry inh: inhibitors of vaccinia virus infection (mCherry reporter signal); 0.63% of 310,000 active; Potency, µM (series often up to 36.5 µM), for the others: at the highest dose activity change, negative = inhibition, hits mostly inhibitors; Vaccinia virus mCherry reporter infection, fluorescence; about a quarter of the inactives have no number; active = well fitted inhibition curve with a large enough effect; inconclusive = small, poorly fitted or top-dose-only effect; inactive = no such curve, though single readings can be large or run the other way; tested in A549 cells; further: nearly all actives have a fitted effect of over 35% in size; inactives centre near -10
Starred values were filed as active, the others as inactive; i = inactive; ? = inconclusive; / = not tested or not shown; & = joins results of further samples; [ ] = remark or other dose. On the % scale 0 is the no-effect control and ±100 the full control effect; potency means the concentration at half of the fitted maximal effect. This is a random part of the collection. About 0.87% of those tested had a hit in this group.

The opening 3 records (preview)
Every second line gives: Vaccinia Venus | VACV mCherry inh
COc1cccc(Cn2c(NCc3cccnc3)nc3c2c(=O)n(C)c(=O)n3C)c1
 : ? | 4.5µM*
COc1ccc(CN2C(=O)CCC(C(=O)O)C2c2ccccc2)cc1 (stereo not given)
 : -13% | -1%
CCOCCc1nn2c(=O)cc(CSCC(=O)Nc3cc(C)cc(C)c3)nc2s1
 : 4% | -4%

The whole of this part, previewed entries included:
Every second line gives: Vaccinia Venus | VACV mCherry inh
COc1cccc(Cn2c(NCc3cccnc3)nc3c2c(=O)n(C)c(=O)n3C)c1
 : ? | 4.5µM*
COc1ccc(CN2C(=O)CCC(C(=O)O)C2c2ccccc2)cc1 (stereo not given)
 : -13% | -1%
CCOCCc1nn2c(=O)cc(CSCC(=O)Nc3cc(C)cc(C)c3)nc2s1
 : 4% | -4%
Cc1nc(Cl)sc1C(=O)Nc1ccccc1
 : ? | ?
Cc1nc2ccc([N+](=O)[O-])cc2[nH]1
 : -1% | -12%
COc1ccc(CN(Cc2ccco2)C(=O)c2ccccc2F)cc1
 : -4% | -10%
COc1ccc(/C=C/C(=O)O)cc1S(=O)(=O)N1CCC(Cc2ccccc2)CC1
 : -15% | -10%
O=C(Cn1ncc2c([nH]c3ccccc32)c1=O)N1CCN(c2ccc(F)cc2)CC1
 : -9% | i
COc1ccc(CCNC(=O)c2cnc3ccccc3n2)cc1
 : -4% | -9%
CCn1nc(C)c([N+](=O)[O-])c1C(=O)NNC(=O)c1ccccc1Cl
 : -16% | -3%
CCCONC(=O)Nc1ccccc1[N+](=O)[O-]
 : 6% | -15%
CCc1ccccc1NC(=O)CN1CCN(C(=O)CCC(=O)N2CCC(c3ccccc3)=N2)CC1
 : ? | ?
Cc1cc2c(N=NC(=O)C3CC3c3ccccc3)c(O)[nH]c2cc1Br (stereo not given)
 : -11% | -13%
O=C(c1ccc(S(=O)(=O)N2CCOCC2)cc1)N1CCN(c2ccccc2F)CC1
 : -13% | i
Cc1noc(C)c1C(=O)Nc1nnc(-c2ccccc2)s1
 : -12% | -12%[1.46 µM]
Cc1ccc(NC(=O)Cn2ccn(-c3ccc(F)c(F)c3)c(=O)c2=O)cc1C
 : -12% | -13%
CCN(CC)S(=O)(=O)c1ccc(C(=O)NCCN(C)C)cc1
 : -1% | -6%
O=C(Nc1ccnn1C1CCN(C(=O)c2cnsn2)CC1)c1cccc(F)c1
 : -14% | -1%
CC(C)c1ccc(NC(=O)CSc2nc3ccccc3nc2N2CCCC2)cc1
 : 0% | i
Cn1c(Cc2csc(N)n2)nnc1SCC(=O)NC1CCCCC1
 : -17% | /
COc1ccccc1CCC(=O)NNC(=O)c1ccc(Br)cc1
 : 7% | -8%
CCOC(=O)c1ccc(NC(=O)COc2ccc(CNCCO)cc2OCC)cc1
 : -9% | -14%
CCOP(=O)(OCC)C(NC(=O)c1ccccc1C)C(Cl)(Cl)Cl (stereo not given)
 : -9% | -16%
COC(=O)c1cccc(C(=O)N2CCCC(CCC(=O)N(C)CCc3ccccn3)C2)c1 (stereo not given)
 : -6% | i
CC(C)n1c(=O)c2oc3ccccc3c2n(CC(=O)Nc2ccccc2Cl)c1=O
 : -11% | -10%
O=C(CCc1ccccc1)NNC(=O)c1ccc(F)cc1
 : -16% | -8%
CCOC(=O)c1c(CN2CCOCC2)n(C)c2cc(Br)c(O)c(CN(C)C)c12
 : -20% | -8%
O=C1NN=C2CCCCCCC12 (stereo not given)
 : -13% | -25%
CCCCOc1ccc(C(=O)NCC(=O)OC2CCOC2=O)cc1 (stereo not given)
 : -15% | -22%
O=C1C2Sc3[nH]c(=O)sc3C(c3cc([N+](=O)[O-])ccc3O)C2C(=O)N1c1ccccc1 (stereo not given)
 : -20% | -4%
Fc1ccccc1C1c2[nH]c3ccccc3c2CCN1Cc1ccoc1 (stereo not given)
 : 6% | -4%
O=S(=O)(Nc1ccccc1)c1ccc(NS(=O)(=O)c2cccs2)cc1
 : 4% | i
CN(Cc1ccccc1)C(=O)c1csc([C@H]2C[C@H](O)[C@@H](CO)O2)n1
 : -6% | 2%
CCOc1ccc(NS(=O)(=O)c2ccc(C(=O)N(C)Cc3cccc(OC)c3OC)cc2)cc1
 : -17% | -26%
CC(C)c1nc(C(=O)N2CCOc3ccc(CN4CCN(c5ccccn5)CC4)cc3C2)cs1
 : -26% | -3%
COc1ccc(CC(=O)Oc2ccc(C)cc2Br)cc1S(=O)(=O)N1CCOCC1
 : -13% | -10%
COc1cc(/C=N/NC(=O)c2ccc3ccccc3c2)ccc1Oc1ccc([N+](=O)[O-])cn1
 : -4% | -19%
O[C@H]1C[C@H](c2ccc(Cl)cc2)N(CC2CCCCC2)C[C@@H]1n1cc(C2CC2)nn1
 : ? | ?
Brc1ccc2c(c1)C(c1cccnc1)=NNC(c1cccs1)=N2
 : ? | ?
CN(CCOc1ccc(Cl)cc1)C(=O)CNS(=O)(=O)c1ccc(N(C)C)c([N+](=O)[O-])c1
 : -15% | i
CC1SCCN1S(=O)(=O)c1ccc2ccccc2c1 (stereo not given)
 : -7% | -13%
Cc1cc(C)c(NC(=O)c2cc(C(=O)O)ccc2C(=O)O)c([N+](=O)[O-])c1
 : 10% | -25%
O=C(NCc1cccnc1)c1ccc2sc([C@H]3C[C@H](O)[C@@H](CO)O3)nc2c1
 : 1% | -14%
COc1ccc(N2CCN(C(=O)Cn3cnc4c(cnn4-c4ccccc4)c3=O)CC2)cc1
 : 11% | -9%
CCOC(=O)CSc1nc2c(sc3ccccc32)c(=O)n1CCc1ccccc1
 : -8% | 2%
COc1cc(/C=N/NC(=O)c2nonc2C)ccc1O
 : -6% | -30%
Cn1c(CCNC(=O)c2cc(COc3ccc(F)c(F)c3)on2)nc2ccccc21
 : 2% | -10%
Cc1cc(C)cc(-c2nnc(SCC(=O)NCc3cccs3)o2)c1
 : -11% | -18%
CCn1nc(C)cc1C(=O)Sc1ccc(C)cc1
 : 19% | -6%
OC[C@@H]1CN(Cc2ccc(F)cc2)C[C@H](n2cnc3c(NCc4ccncc4)ncnc32)O1
 : -1% | i

2 entries from above, as labelled records:
> COc1cc(/C=N/NC(=O)c2nonc2C)ccc1O
  Vaccinia Venus = -6%
  VACV mCherry inh = -30%
> Cn1c(CCNC(=O)c2cc(COc3ccc(F)c(F)c3)on2)nc2ccccc21
  Vaccinia Venus = 2%
  VACV mCherry inh = -10%

More structures follow:
Every second line gives: Vaccinia Venus | VACV mCherry inh
COc1cccc(NC(=O)COC(=O)/C=C/c2ccc(Cl)cc2Cl)c1
 : -11% | -16%
CCCCOc1ccc(NC(=O)CN2CCN(C(=O)OCC)CC2)cc1
 : -8% | -11%
CNc1ccc2oc(C[C@@H]3OC4(CC[C@@H]3C)O[C@H]([C@@H](C)C(=O)c3ccc[nH]3)[C@H](C)C[C@H]4C)nc2c1C(=O)O (stereo not given in full)
 : ? | ?
O=C(/C=C/c1ccccc1)Nc1cccc(C(=O)NCCc2ccccc2)c1
 : -16% | -24%
FC(F)Oc1ccc(NC(=S)Nc2ccc3cn[nH]c3c2)cc1
 : -3% | i
O=C1c2ccccc2C(=O)N1CCCn1ccnc1
 : -2% | i
Cc1onc(-c2c(Cl)cccc2Cl)c1C(=O)N(C)Cc1ccccc1
 : -17% | -7%
CC(C)COc1cccc(-c2cc(C(=O)N/N=C/c3ccncc3)c3ccccc3n2)c1
 : -2% | ?
O=C(O)c1ccccc1C(=O)OCc1ccccc1
 : -10% | /
Cc1ccc(-n2ncc3c(N4CCN(Cc5ccccc5)CC4)ncnc32)cc1
 : -8% | -17%
Cc1ccc(-c2cc(Cc3cccs3)c(=O)[nH]n2)cc1
 : -13% | ?
O=C(NCCn1cc(SCc2ccccc2)c2ccccc21)c1cccs1
 : -26% | -30%
Cc1cccc(NC(=O)c2ccc(S(=O)(=O)N3CCCCCC3)cc2)n1
 : -18% | i
COc1cc(OC)cc(C(=O)Nc2cc(-c3nc4cccnc4s3)ccc2C)c1
 : ? | ?
Cn1c(SCC(=O)OCc2ccccc2)nnc1-c1ccco1
 : -12% | i
COC(=O)c1ccc(C2/C(=C(/O)c3ccc4c(c3)CC(C)O4)C(=O)C(=O)N2Cc2ccncc2)cc1 (stereo not given)
 : -13% | -15%
O=C1C2CCCN2C(=S)N1Cc1ccccc1 (stereo not given)
 : 0% | -10%
O=C(O)C(=O)Nc1ccc(NC(=O)C(c2ccccc2)c2ccccc2)cc1
 : -13% | i
O=C(Nc1ccccc1Br)c1cc[n+]([O-])cc1
 : -3% | -12%
CC(=O)N1CCN(C(=O)CCc2c[nH]c3ccccc23)CC1
 : -8% | -8%
CC(C)(C)OC(=O)N1CCOCCOCCN(C(=O)OC(C)(C)C)CCOCC1
 : -33% | -15%
O=C(NCc1ccccn1)c1ccc(Cl)cc1Cl
 : -2% | -3%
O=C(c1cnn(-c2nccc(-c3ccco3)n2)c1C1CC1)N1CCCCC1c1cccnc1 (stereo not given)
 : 2% | 0%
Cc1cccc(C)c1NC(=O)C(=O)NCCCN1CCOCC1
 : 2µM* | 6.3µM*
CN(C)S(=O)(=O)c1cc(NC(=O)CN2CCc3ccccc32)ccc1Cl
 : -3% | ?
COc1ccc(Br)c(Cn2c(C)c(C(=O)NCc3ccc4c(c3)OCCO4)sc2=O)c1
 : -4% | i
CCN1/C(=C/C(=S)Nc2ccccc2)Sc2ccccc21
 : -27% | ?
COC(=O)[C@@]1(Cc2ccccc2)[C@H]2C(=O)N(C)C(=O)[C@H]2[C@H]2CN=C(SCc3ccc(Cl)cc3)N21
 : -28% | -24%
Cc1cc(Br)ccc1NC(=S)N1CCOCC1
 : -2%[7.34 µM] | 0%[7.34 µM]
CN=C(C[N+](=O)[O-])NCCSCc1ccc(CN(C)C)o1
 : -11% | -3%
CSc1ccc(C2N=C(c3ccccc3)NO2)cc1 (stereo not given)
 : 1% | ?
CC1CCCCC1NC(=O)Cn1c(=O)oc2cc(S(=O)(=O)N3CCCC3)ccc21 (stereo not given)
 : -15% | -3%
S=C(NCCSCc1ccccc1Cl)Nc1ccccc1
 : -25% | -28%
O=C(NCCc1ccccc1)C(c1ccccc1)N(C(=O)c1csnn1)C1CC1 (stereo not given)
 : -10% | -13%
CCCNC(=O)c1cccc(Cn2cc(Br)c([N+](=O)[O-])n2)c1
 : -11% | -2%
O=C(NN=CC=Cc1ccccc1)C(O)C(O)C(=O)NN=CC=Cc1ccccc1 (stereo not given)
 : -12% | -12%
Cc1cccc(CN2CCN(C(C)C(=O)NC(C)c3ccccc3)CC2)c1 (stereo not given)
 : -16% | -21%
O=C(COC(=O)c1c[nH]c2ccccc12)NCc1ccccc1
 : -10% | i
COC(=O)c1ccccc1NC(=O)c1cnn2c(C(F)F)cc(C3CC3)nc12
 : -29% | -24%
CCOC(=O)c1nnn(-c2nonc2-n2cccc2)c1CN1CCC(C)CC1
 : 3% | -2%
COc1cccc(NC(=S)N2CCc3cc(OC)c(OC)cc3C2)c1
 : 0% | -20%
COC(=O)Cc1ccc(NC(=S)NCCSc2ccc(C)cc2)cc1
 : -20% | i
CCn1c(O)c(/C=C/C=C/C=Nc2ccccc2)sc1=S
 : 30%[activator] | -11%
CCOC(=O)c1[nH]c(=O)[nH]c1COC(=O)c1cc2ccccc2o1
 : -12% | -20%
CCOC(=O)c1c(C)[nH]c(C(=O)COC(=O)/C=C/c2cccc(OC)c2OC)c1C
 : 3% | i
O=C(CSc1ccnc(=O)[nH]1)NCc1ccc(F)cc1
 : -5% | 4%
O=C(COC(=O)CNC(=O)c1ccccc1)Nc1ccc(F)c([N+](=O)[O-])c1
 : -6% | i
COc1ccc(OCc2nc(N)nc(Nc3ccc(C)cc3)n2)cc1
 : -18% | -28%
O=C(CS)Nc1ccc2ccccc2c1
 : -12%&-8% | ?
CC1(C(=O)NCCc2c[nH]c3ccccc23)C=CCN1C(=O)c1ccccc1 (stereo not given)
 : -17% | -17%

(more compounds)
Every second line gives: Vaccinia Venus | VACV mCherry inh
CCCCN(C(=O)NC(=O)C1=C(N2CCOCC2)/C(=C/c2ccccc2)CC1)S(C)(=O)=O
 : -19% | -9%
COC(=O)[C@@]1(Cc2ccc(F)cc2)[C@H]2c3cc(C(=O)N4CCCC4)n(CCc4ccc(OC)c(Br)c4)c3C[C@H]2CN1C(=O)c1ccccc1
 : -29% | -22%
CCOC(=O)c1c(C)[nH]c(C(=O)COC(=O)c2cnc(C)cn2)c1C
 : -14% | -17%
O=C1CCC(=O)N1CC(=O)N(c1ccccc1)c1ccccc1
 : -5% | -7%
Cc1csc(NC(=O)CSc2nnnn2C)n1
 : -7% | i
Cc1c(C(=O)OCC(=O)c2ccc3c(c2)OCCO3)oc2ccccc12
 : 0% | -4%
CCOC(=O)N1CCC(NC(=O)Cn2c3c(c(-c4ccccc4Cl)cc2=O)CCC3)CC1
 : -1% | i
CC(=O)N(C)c1ccc(OCC(O)Cn2c(C)nc3ccccc32)cc1 (stereo not given)
 : -5% | -12%
O=C(Cc1ccc(Br)cc1)NNC(=O)Nc1ccc(Cl)cc1
 : -7% | i
C#CCOCCOCCOCCNc1nc(N2CCN(C(=O)[C@H]([C@@H](C)CC)n3cc(CCC(=O)O)nn3)CC2)nc(N2CCN(C(=O)[C@H](CCCCN)n3cc(CCCC)nn3)CC2)n1
 : 7% | -10%
O=C(/C=C/c1cn(CC(O)CN2CCc3ccccc32)c2ccccc12)c1ccc(Br)cc1 (stereo not given)
 : -20% | -27%
O=C1CC(c2nc3ccccc3[nH]2)CN1c1cccc(Cl)c1 (stereo not given)
 : 3% | -9%
Cn1cc(CNC(=O)C2CCC(=O)N(Cc3ccccc3F)C2)cn1 (stereo not given)
 : -11% | i
